# BJeLR viability – kills HRASV12-expressing BJeLR cells. inhibition, % (test concentration not listed). hit rate 0.17% among 300,000. BJeLR (HRASV12) viability, CellTiter-Glo ATP luminescence, 48 h; reference of the scale not given here;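 active = replicate mean above 50%; inconclusive = above 50% but judged a plate artefact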;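 also: 50 nL library stock added to about 25 µL; numbers are from one replicate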
# PrP 5UTR inh – suppresses PrP 5' UTR mRNA reporter expression. inhibition, % (no concentration beside the values). hit rate 0.35% among 340,000. cell-based PrP 5' UTR mRNA reporter, plate reader;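 active = every replicate at 50% or more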;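 also: 0 = median of the neutral control wells; tested in H4 reporter cells; numbers are from one replicate; inactives centre near -14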
# Sa ugtP lethal – growth inhibition of S. aureus ugtP deletion strain; hit rate 0.54% among 330,000; S. aureus RN4220 ugtP deletion, OD600 growth, 16 h; some inactives read as strong as hits; AID 1259309; growth inhibition, % (concentration not given with the values);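 active = z-score under -3 and OD600 up to 0.15 on both plates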;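 also: plate controls were untreated wells for no effect and antibiotic for full effect; wells of about 80 µL received 100 nL stock; the first replicate is given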
# RN4220 kill – S. aureus RN4220 growth inhibition; OD600, 16 h; hit rate 0.33% among 330,000; inhibition, % (no concentration beside the values); AID 1259311;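 active = z-score of -3 or lower and OD600 up to 0.18 on both plates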;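 also: plate controls were untreated cells for no effect and reference antibiotic for full effect; stock transfer was 100 nL into about 80 µL; one replicate is shown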
# Mtb hypoxia rep – Mtb hypoxia fluorescent reporter inhibition; hit rate 0.1% among 300,000; fluorescence inhibition, % (test concentration not listed); M. tuberculosis hypoxia-regulated fluorescent reporter, fluorescence;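 active = 35 to 45% if threefold the growth effect, above 45% if 1.5-fold the growth effect; inactive = the rest, general growth blockers included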;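 also: wells of about 50 µL received 100 nL stock; 0% = vehicle wells and 100% = reference inhibitor wells; whole bacteria with a GFP reporter of the hypoxia response; strong numbers were not always called active; many hits fall short of the cut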
# Bead autofluor – compound fluorescence in toxin protease inhibitor counterscreen; AID 624483; fluorescence intensity (concentration not given with the values); compound autofluorescence counterscreen, microsphere flow cytometry; active compounds read high; hit rate 3.1% among 360,000;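 active = at least 3 SD above the mean of all compounds, about 16000 in these data; inconclusive = too few beads counted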;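 also: 100 nL of 1 mM stock went into each well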
# Mtb hypoxia rep growth – also measured in Mtb hypoxia rep; calls as there; growth inhibition, %; measured here: M. tuberculosis growth (absorbance);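 0% = vehicle and 100% = reference antibiotic; read after six days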
# An asterisk follows results filed as active; ? = inconclusive; / = no result given.
SMILES,BJeLR viability,PrP 5UTR inh,Sa ugtP lethal,RN4220 kill,Mtb hypoxia rep,Mtb hypoxia rep growth,Bead autofluor
COc1ccc(-c2c(C#Cc3ccsc3)c3cc(-c4ccc5cc[nH]c5c4)ccc3n2C)cc1,/,-24,-11,5.2,-1,7,2924
CC(=O)c1sc(NC(=O)c2cc(-c3ccccc3)nn2-c2ccccc2)nc1C,0,3,-23,6.8,-11,-4,2189
CNc1nc(Sc2ccccc2)cc(C(F)(F)F)n1,-8,7,42,11,17,0,?
COc1ccc(/C=N/N=C2/CC(C)(C)Cc3n[nH]c(=O)cc32)cc1,2,-34,/,/,/,/,2462
CCCN(CCC)c1cc(Cl)nc(N)n1,-8,-27,6,7.2,7,0,3622
CCOC(=O)C1(CCc2ccccc2)CCN(Cc2ccc(NC(C)=O)cc2)CC1,12,-9,9,2.8,-7,-2,/
Cc1ccc(F)cc1S(=O)(=O)Nc1cccc(C(=O)N2CCCC(C(N)=O)C2)c1 (stereo not drawn),/,-15,-5,-0.9,-1,-12,3585
CC(=O)Nc1cccc(/C(C)=N/NS(=O)(=O)c2ccc(C)cc2)c1,-2,-15,/,/,/,/,4440
Fc1ccc(CNCc2ccc3c(c2)OCO3)cc1,-4,13,0,-0.1,3,-3,/
COc1ccc(CN(C)CC(O)COc2ccc(C(=O)c3ccccc3)cc2)c(OC)c1OC (stereo not drawn),-8,13,-2,0.5,4,9,3218
Cn1cc(C(=O)CCl)c2ccccc21,-3,-25,8,9.5,/,/,5744
N#CC1=C2SCC(O)(c3ccccc3)N2C(=O)CC1c1ccccc1F (stereo not drawn),10,-19,-7,0.4,5,5,4378
O=c1c(-c2ccc(O)cc2)coc2c(C3O[C@H](CO)[C@@H](O)[C@H](O)[C@H]3O)c(O)ccc12 (stereo partly drawn),0,-2,5,-0.3,5,-1,3462
COc1cc(C=NO)cc(Br)c1OC,/,/,6,0.1,1,4,/
CCCOc1ccccc1Cn1c(=O)oc2ccccc21,-10,-12,15,5.4,3,2,4603
CCc1ccc(NC(=O)CSC2=C(C#N)C(c3ccco3)C3=C(CCCC3=O)N2)cc1 (stereo not drawn),0,8,-1,7.0,/,/,4772
C/C(C=NNC(=O)CSc1nc2ccccc2n1C)=C\c1ccco1,/,/,4,1.4,11,11,/
NS(=O)(=O)c1ccc(N/C=C/C(=O)c2ccc(Br)cc2)cc1,12,-52,/,/,/,/,10867
COC1=CC(=O)CC(C)C12Oc1cc(OC)cc(OC)c1C2=O (stereo not drawn),-5,0,10,5.4,/,/,5739
Cc1c(C)c2ccc(OCC(=O)N[C@@H](Cc3ccccc3)C(=O)O)cc2oc1=O,6,-14,0,-0.1,/,/,5593
O=C(CN1CCOCC1)Nc1ccc(OC(F)(F)F)cc1,-7,-63,8,5.4,5,5,3431
O=C(NCc1ccc(Cl)cc1)C1CCCN1C(=O)Nc1ccc(F)cc1 (stereo not drawn),-8,-14,-4,-0.9,-1,-1,3803
CC1CN(C(=O)c2ccc(COc3ccccc3Cl)o2)CC(C)O1 (stereo not drawn),-6,-20,10,0.2,8,9,3793
CC(=O)NC1CC2CCC(C1)N2 (stereo not drawn),-5,-25,14,7.6,10,6,14824
Cc1nn(C)cc1CN(C)C(=O)c1cc(COc2ccc(F)cc2F)on1,0,-14,6,4.3,3,-2,2726
# The list goes on.
SMILES,BJeLR viability,PrP 5UTR inh,Sa ugtP lethal,RN4220 kill,Mtb hypoxia rep,Mtb hypoxia rep growth,Bead autofluor
COc1cccc(NC(=O)CN(C)C(=O)CN2C(=O)NC3(CCCC3)C2=O)c1,-1,-13,5,6.0,11,6,5227
Cc1ccc(C)c(N2CCN(S(=O)(=O)CC34CCC(CC3=O)C4(C)C)CC2)c1 (stereo not drawn),3,-13,4,0.7,-3,1,3721
Cc1ccc(NS(=O)(=O)c2ccc3[nH]c(=O)sc3c2)cc1,8,-2,100*,-8.7,3,10,5126
Cc1cccc(CC2SC(N)=NC2=O)c1 (stereo not drawn),-3,-28,1,-2.0,-6,13,4087
C=CCn1c(SCC(=O)Nc2nnc(CC)s2)nnc1-c1ccncc1,-8,-22,1,5.6,13,2,2484
Cc1cc(SCc2ccccc2)nc(=O)[nH]1,-1,4,-3,-3.0,2,1,4249
COC(=O)C1=C(C)N(CCCC(=O)O)C(=O)NC1c1ccc(Br)cc1 (stereo not drawn),-5,-12,-2,-14,4,14,4072
COc1ccc(CNS(=O)(=O)CCNC(=O)c2ccccc2)cc1,1,-9,1,1.2,-19,0,6416
COc1ccc(-c2ccc(NCCC3=CCCCC3)nn2)cc1OC,-3,-13,1,4.6,3,7,15591
CCOC(=O)/C(C#N)=C\c1cn(C)c2ccccc12,0,-28,-8,4.1,-12,2,4304
Cc1c(Cl)ccc2c1NC(=O)[C@]21N[C@@H](CCC(N)=O)[C@H]2C(=O)N(c3ccc(F)cc3)C(=O)[C@H]21,5,-12,0,3.9,2,-1,4239
CSc1ccccc1NC(=O)CN(C)C(=O)c1cccc(S(=O)(=O)N(C)C)c1,/,-6,4,1.8,-2,0,5042
Cc1ccc(-c2nc3ccccc3c(=O)n2-c2ccncc2)cc1,15,-6,3,2.2,-3,2,2441
CCC(C)NC(=O)c1c(N)n(CC2CCCO2)c2nc3ccccc3nc12 (stereo not drawn),-8,-18,-6,-3.6,3,7,3780
Cc1ccsc1/C=N/NC(=O)C1CC(=O)N(c2ccccc2)C1 (stereo not drawn),-9,-11,/,/,/,/,2508
COc1ccc(/C=C/C=C2\NC(=S)NC2=O)cc1,5,-9,-5,-2.8,7,2,3443
O=C1Nc2ccccc2C(=O)N2CCCCC12 (stereo not drawn),-11,-44,4,3.6,-4,1,4110
COc1ccc(CCN(C)C(=O)Cn2c(=O)oc3ccccc32)cc1OC,1,-1,8,7.2,3,4,3044
CCOC(=O)c1snc(C(=O)NC2CCCCC2)c1N,0,-57,-3,-2.8,-5,7,10906
Cc1ccc(C(=O)N2CCN(C(=O)CN3CCOCC3)C2)cc1,1,-20,-3,1.4,/,/,2773
Cc1ccccc1NS(=O)(=O)c1ccc(C(=O)NN2CCCCC2)cc1,1,-13,2,2.8,4,12,6735
O=C(Cc1ccccc1)Nn1c(-c2ccccc2)nc2ccccc2c1=O,-8,-30,-5,14,8,5,1985
CC(C)CC(NC(=O)c1nc[nH]c1C(=O)NCc1ccc(CNC(=O)OC(C)(C)C)cc1)C(=O)OCc1ccccc1 (stereo not drawn),/,/,0,1.7,3,-6,/
CN1CCN(c2ncc(C=O)s2)CC1,-4,-14,5,-2.2,-2,11,4180
COc1cc(OC)cc(C(=O)NC(=S)N2CCN(c3ccc(C(F)(F)F)cc3[N+](=O)[O-])CC2)c1,4,-11,-7,-15,/,/,2508
# Continued.
SMILES,BJeLR viability,PrP 5UTR inh,Sa ugtP lethal,RN4220 kill,Mtb hypoxia rep,Mtb hypoxia rep growth,Bead autofluor
CN(CCOc1ccc(Cl)cc1)C(=O)c1cc(-c2ccco2)nc2ccccc12,-16,-15,-2,-1.8,2,0,7235
O=C(NCCc1ccccc1)c1cccc(N2CCCC2=O)c1,-3,38,-3,1.3,3,2,4600
CCN(c1ccccc1)S(=O)(=O)c1ccc(C(=O)Nc2c(C)n(C)n(-c3ccccc3)c2=O)cc1,/,-15,-4,3.9,-1,9,2866
CSc1nc(-c2ccccc2)nc(SC)c1C(C)=O,2,/,30,9.0,9,6,11462
Cc1noc(C)c1C(c1ccccc1)c1ccccc1,7,-35,15,5.0,7,8,11315
COc1ccc(N(C(=O)c2ccc(S(=O)(=O)N3CCOCC3)cc2)C2C=CS(=O)(=O)C2)cc1 (stereo not drawn),-10,-14,6,2.1,-3,-6,6594
Cc1nc2ncnn2c(N2CCN(C(=O)c3cccc(F)c3)CC2)c1C,-3,-4,3,-2.9,/,/,4917
CCC(=O)c1ccc2c(c1)OCCO2,8,4,5,7.2,8,2,4283
NS(=O)(=O)c1ccc(NC(=O)Cc2cccs2)cc1,6,-26,5,2.8,15,8,4141
COCCNC(=O)CNC(=S)N(CCCN1CCOCC1)Cc1cccs1,4,-5,3,0.0,14,3,3212
CCn1c(CCCOc2ccc(Cl)cc2Cl)n[nH]c1=S,0,-24,-3,-5.7,6,1,3486
COC(=O)c1ccc(COC(=O)Cc2n[nH]c(=O)c3ccccc23)cc1,-11,-14,6,5.9,6,0,3358
CCCCN(C(=O)CCC(=O)Nc1cc(C)on1)C(C(=O)NC1CCCC1)c1ccc(OC)cc1 (stereo not drawn),-5,-20,5,2.2,-14,-17,5431
COC(=O)COc1ccc(S(=O)(=O)NCc2ccccn2)cc1,15,-1,3,2.4,4,11,3246
CC1CCc2c(sc(NC(=O)COC(=O)c3ccc(O)cc3)c2C#N)C1 (stereo not drawn),-4,-1,-1,-14,11,-8,3044
COc1ccc(Nc2nc(C)cc(C)c2C(N)=O)cc1,4,-24,6,7.5,10,6,2619
O=C(NC1CC1)c1cc(-c2ccco2)nc2ccccc12,3,-16,5,6.8,16,9,5072
CS(=O)(=O)Nc1ccc(C(=O)NCc2ccc3c(c2)OCO3)cc1,-16,0,-3,0.2,1,7,6460
Cc1ccc(-c2csc3nc(-c4ccncc4)[nH]c(=O)c23)cc1,-6,-29,4,2.6,4,-2,4337
CN1CC2C(c3ccc(C(F)(F)F)cc3)C3(c4cccnc4)CC2(C3)C1c1ccccc1 (stereo not drawn),/,/,-1,4.0,6,12,/
Cc1ccccc1CN1CCN(C(=O)c2cc(-c3ccncc3)nc3ccccc23)CC1,-9,-14,-3,-1.4,13,10,6338
Fc1ccc(-n2cc(CNCCc3ccccn3)c(-c3ccccc3Cl)n2)cc1,-1,-3,/,/,/,/,4238
CN1C(=O)/C(=N\OC(=O)c2cccc3ccccc23)c2ccccc21,1,2,/,/,/,/,10395
CCc1nnc(NC(=O)COc2ccc([N+](=O)[O-])cc2)s1,9,-7,0,2.2,6,-1,2610
CCn1c(SCC(=O)NN=C(C)c2ccco2)nnc1-c1ccccc1,/,/,4,5.2,-7,-6,/
# The listing continues:
SMILES,BJeLR viability,PrP 5UTR inh,Sa ugtP lethal,RN4220 kill,Mtb hypoxia rep,Mtb hypoxia rep growth,Bead autofluor
O=C(COc1ncnc2ccc(Br)cc12)NCc1ccc2c(c1)OCO2,12,-23,-6,-21,5,1,2652
O=C(Cn1cnc2c(OCc3ccccc3)ncnc21)NCCCc1ccccc1,/,-10,2,-3.9,-7,-4,3085
NN=C(c1cccc([N+](=O)[O-])c1)c1cccc([N+](=O)[O-])c1,4,/,1,4.4,9,-8,6174
COc1ccc(CCNC(=O)COC(=O)c2cc(S(=O)(=O)N3CCCC3)ccc2O)cc1,/,-16,3,2.0,7,-2,9214
O=C(O)/C=C/c1cnc2ccccc2c1,/,-14,0,6.4,5,10,4424
COc1ccc(-n2c(Cc3cccn3C)nnc2SCC(=O)Nc2ccc3c(c2)OCCO3)cc1,-1,-13,5,-0.3,/,/,5179
Cc1ccc(Nc2nc(NN=Cc3ccc4c(c3)OCO4)nc(N3CCOCC3)n2)cc1,/,/,-26,5.7,-10,22,/
CCOC(=O)c1c(NC(=O)Cn2cnc3scc(-c4ccc(C)cc4)c3c2=O)sc(C)c1C,22,-15,4,8.5,5,1,2037
Cn1c(=O)c2c(nc(NCCO)n2CCc2ccccc2)n(C)c1=O,12,-14,4,2.3,10,2,12878
COC(=O)C1=C(C(=O)OC)[C@@H]2N(C)c3ccc(OC)cc3[C@@]23C[C@@H](C(=O)OC)N(C(=O)NC2CCCCC2)C3=N1,0,-20,/,/,/,/,3826
CCCN1CCN(CCCNC(=O)Cn2nc(-c3ccc(C)cc3)ccc2=O)CC1,-6,-18,7,0.9,3,-8,10222
Cc1cccc(C(=O)NNS(=O)(=O)c2ccccc2)c1O,2,-20,1,12,14,5,4480
CCCN1CCN(C(=S)Nc2ccc(SC(F)F)cc2)CC1,-3,-1,0,-3.8,4,6,3100

# Compound profiles, as listed above:
# `O=C(COc1ncnc2ccc(Br)cc12)NCc1ccc2c(c1)OCO2` across the screens: BJeLR viability: 12; PrP 5UTR inh: -23; Sa ugtP lethal: -6; RN4220 kill: -21; Mtb hypoxia rep: 5; Mtb hypoxia rep growth: 1; Bead autofluor: 2652
# `O=C(Cn1cnc2c(OCc3ccccc3)ncnc21)NCCCc1ccccc1` across the screens: BJeLR viability: /; PrP 5UTR inh: -10; Sa ugtP lethal: 2; RN4220 kill: -3.9; Mtb hypoxia rep: -7; Mtb hypoxia rep growth: -4; Bead autofluor: 3085
# `COc1ccc(-n2c(Cc3cccn3C)nnc2SCC(=O)Nc2ccc3c(c2)OCCO3)cc1` across the screens: BJeLR viability: -1; PrP 5UTR inh: -13; Sa ugtP lethal: 5; RN4220 kill: -0.3; Mtb hypoxia rep: /; Mtb hypoxia rep growth: /; Bead autofluor: 5179
